Screens (PubChem)
YopH PTP inh: YopH (Yersinia) phosphatase inhibition; fluorescence Ex485/Em525; inhibition, %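 (about 10 µM by stock and volumes)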; AID 898; hit rate 0.16% among 140,000;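 active = inhibition of 50% or more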;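 also: controls were vehicle for no effect and minimum signal wells for full effect; inactives centre near -20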
RecA intein inh: inhibitors of M. tuberculosis RecA intein splicing | P9WHJ3 | cell-free RecA intein splicing, fluorescence | inhibition, %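 (about 9 µM by stock and volumes)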 | hit rate 0.75% among 290,000 | AID 2221; in the data active = inhibition above about 30%; inconclusive = no clear call, values can overlap the other calls;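 also: 0% = vehicle wells and 100% = reference inhibitor control wells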
Target sequence (P9WHJ3 whole entry, looked up): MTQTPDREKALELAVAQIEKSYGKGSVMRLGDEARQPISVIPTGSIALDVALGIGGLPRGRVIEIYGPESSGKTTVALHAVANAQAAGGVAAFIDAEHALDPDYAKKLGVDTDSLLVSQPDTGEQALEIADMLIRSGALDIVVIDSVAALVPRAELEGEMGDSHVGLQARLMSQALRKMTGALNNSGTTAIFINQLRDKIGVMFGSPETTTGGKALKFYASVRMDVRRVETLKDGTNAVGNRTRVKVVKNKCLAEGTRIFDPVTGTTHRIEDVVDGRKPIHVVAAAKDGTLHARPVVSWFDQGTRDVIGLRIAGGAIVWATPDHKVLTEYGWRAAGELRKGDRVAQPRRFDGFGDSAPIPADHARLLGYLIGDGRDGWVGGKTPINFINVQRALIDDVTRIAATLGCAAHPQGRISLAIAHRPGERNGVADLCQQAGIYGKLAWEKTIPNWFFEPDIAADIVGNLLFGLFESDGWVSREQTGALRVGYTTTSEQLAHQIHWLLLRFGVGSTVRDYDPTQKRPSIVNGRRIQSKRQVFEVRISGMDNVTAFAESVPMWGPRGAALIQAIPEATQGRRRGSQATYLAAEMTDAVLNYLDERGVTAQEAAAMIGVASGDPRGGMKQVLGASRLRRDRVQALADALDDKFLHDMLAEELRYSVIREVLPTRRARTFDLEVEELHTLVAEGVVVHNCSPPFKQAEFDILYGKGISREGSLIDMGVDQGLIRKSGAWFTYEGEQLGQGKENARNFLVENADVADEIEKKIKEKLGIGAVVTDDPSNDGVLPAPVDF
Mtb H37Rv: M. tuberculosis H37Rv growth inhibitors, H37Rv strain (AID 1626); M. tuberculosis H37Rv growth inhibition; higher % means a stronger effect; inhibition, % at 10 µM; hits with a dose series show IC50 in µM; hit rate 0.95% among 220,000;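 active = confirmed in a dose series; inconclusive = inhibition above 80% but not taken into the dose series; inactive = below 80% or under 30% at every dose of the series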;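 also: bacteria incubated seven days before Alamar blue readout; 0% = bacteria only wells and 100% = bacteria with antibiotic wells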
Mtb bLac sens: beta-lactam sensitization of Mtb H37Rv; inhibition, % at 25 µM; hit rate 0.27% among 330,000; M. tuberculosis H37Rv growth with meropenem, percent inhibition; hits of this screen are not shown here; AID 434955;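 active = about 74% or more and at least 40 points above the plate without the antibiotic, then above 30% in a dose series; inconclusive = first-round hits that could not be retested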;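 also: growth measured after seven days incubation then overnight dye step; 0% = bacteria only wells and 100% = bacteria with antibiotic; twin plates without the antibiotic show which effects depend on it; some results filed as inactive read as strong as hits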
Arbovirus inh: blocks arbovirus infection; arbovirus infection cell-based antiviral screen; inhibition, % at 10 µM; hit rate 0.37% among 200,000;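 active = inhibition from about 30%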;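 also: bluetongue infection of BSR cells; cell survival read as ATP light after 72 h; 0% = infected wells without compound and 100% = uninfected wells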
Arbovirus inh repeat: also measured in Arbovirus inh; calls as there; inhibition, %; measured here: 10K subset replicate screen; many hits read low in the repeat;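 first of two repeat runs on a subset; 0% = infected and 100% = uninfected wells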
Numbers without * were called inactive; ? = inconclusive; nt = no result given. This is a subset. The share of hits here may be higher or lower than overall.

SMILES | YopH PTP inh | RecA intein inh | Mtb H37Rv | Mtb bLac sens | Arbovirus inh | others
CCOC(=O)c1c(-c2ccc(Cl)cc2)c(C#N)c(=O)n(N)c1N | -19 | 5.6 | 3% | 63 | -5
COc1cccc(-c2cc(C(F)(F)F)n3ncc(C(=O)N4CCc5ccccc5C4)c3n2)c1 | nt | -22 | 8% | -5 | -7
Cc1cc(C)c(S(=O)(=O)c2ccccc2)c(N2CCOCC2)n1 | nt | -1.0 | -4% | 3 | 4
CC1CCN(C(=O)CN(Cc2ccc(Cl)cc2)S(C)(=O)=O)CC1 | nt | -0.3 | nt | -2 | nt
O=C(CSc1nccc(=O)[nH]1)NN(c1ccccc1)c1ccccc1 | nt | 3.6 | -6% | -8 | 0
CSc1cccc(CNC(=O)C2CCC(=O)N(CCc3ccccn3)C2)c1 (centres undefined) | nt | 0.6 | nt | -1 | nt
CCS(=O)(=O)c1nc(S(=O)(=O)c2ccc(C)cc2)c(N2CCC(O)CC2)s1 | nt | 3.7 | nt | -4 | nt
CC(C)CCNC(=O)C(c1ccncc1)N(C(=O)Cn1nnc(-c2ccc(F)cc2)n1)c1ccccc1F (centres undefined) | nt | -3.6 | -4% | 0 | 9
O=S(=O)(c1ccc(Br)cc1)c1nc(-c2ccco2)oc1NCC1CCCO1 (centres undefined) | nt | 2.1 | 0% | -7 | 2
CCCOc1ccc(/C(O)=C2/C(=O)C(=O)N(CCN(C)C)C2c2ccco2)cc1 (centres undefined) | -13 | -0.9 | -5% | -4 | 2 | Arbovirus inh repeat=1
COc1ccc(OC)c(S(=O)(=O)N2c3ccccc3CC2C)c1 (centres undefined) | -22 | -3.0 | -2% | 7 | 3
Cc1ccc2nsnc2c1S(=O)(=O)N1CCOCC1 | -5 | 1.3 | -10% | -3 | 7
CC(C)OC(=O)NS(=O)(=O)c1cccc([N+](=O)[O-])c1 | nt | -1.1 | 6% | 2 | 8
Cc1ccc(Sc2ncccc2C(=O)NC2CCCCCC2)cc1C | -26 | 0.3 | 2% | 7 | -10
O=C(Nc1ccc2[nH]c(=O)[nH]c2c1)c1cccc([N+](=O)[O-])c1 | nt | -1.4 | nt | 0 | nt
COc1ccc(C2CC(=O)CC(=O)C2n2cncn2)cc1 (centres undefined) | -36 | -2.7 | -4% | 8 | 4
COc1ccc(-c2ccc(Nc3ccc(C(=O)N4CCOCC4)cc3)nn2)cc1OC | -7 | nt | -8% | -3 | 5
O=C1C2C3C=CC(C4CC34)C2C(=O)N1/N=C/c1c[nH]c2ccccc12 (centres undefined) | nt | 0.2 | -5% | 2 | 3
O=C(C1=C[C@@H](C2CCCCC2)C[C@@H](OCCCCO)O1)N1CCN(Cc2ccc3c(c2)OCO3)CC1 | nt | 0.1 | 6% | 0 | -10
COc1ccc(/C=C/C(=O)NCCN=C2NS(=O)(=O)c3ccccc32)cc1 | nt | -0.3 | 3% | -4 | -6
Cc1ccc(-n2c(C)cc(C)c(C#N)c2=O)cc1 | -25 | 0.6 | -8% | 2 | 4
CCC(C(=O)OCC(=O)NC(=O)NC(C)(C)C)c1ccccc1 (centres undefined) | nt | 1.2 | -1% | 6 | 2
COc1ccc2oc(C(=O)NCCc3ccccc3)c(C)c2c1 | nt | -1.5 | nt | 7 | nt
O=C(CS(=O)(=O)c1c[nH]c2ccccc12)N1CCCCC1 | -49 | 4.3 | -2% | -4 | 2
CCC(=O)Nc1c2c(nn1-c1ccc(C)cc1C)CSC2 | -57 | -1.1 | -4% | 9 | 5
The results go on:
SMILES | YopH PTP inh | RecA intein inh | Mtb H37Rv | Mtb bLac sens | Arbovirus inh | others
O=c1ccc(-c2ccc(S(=O)(=O)Nc3ccccc3)o2)n[nH]1 | nt | -1.6 | nt | -4 | nt
C=CCN1C(=O)N/C(=C/c2ccccc2OCC(=O)Nc2ccc(F)cc2)C1=O | -30 | nt | -3% | 1 | -11
CC(=O)Nc1ccc(NC(=O)c2ccccc2CCc2ccccc2)cc1 | nt | nt | 0% | 0 | -3
COC(=O)c1ccc(NC(=O)CSc2nnc(COc3ccccc3)n2C)cc1 | -12 | 0.4 | 3% | 12 | -3
O=C(Nc1ccc(F)c([N+](=O)[O-])c1)N1C[C@H]2C[C@@H](C1)c1cccc(=O)n1C2 | nt | -0.5 | nt | 1 | nt
CCc1cccc2c1NC(=O)C2(O)CC(=O)c1cccs1 (centres undefined) | nt | -2.7 | 1% | 0 | -5
CSc1ccccc1NC(=O)c1ccc(Br)o1 | 3 | 3.7 | 7% | -11 | -3
CCN(Cc1ccccc1)Cc1c(F)cccc1F | -12 | -0.5 | -13% | -8 | 7
COc1cccc(NC(=O)c2oc3ccccc3c2NC(=O)C2CC2)c1 | -54 | 0.4 | 2% | nt | 1
O=c1c2c3c(sc2n2cnnc2n1CCc1ccccc1)CCCC3 | -23 | 0.7 | 11% | ? | 2
O=C(NC1(c2ccccc2)CC1)C1CCC(=O)N(Cc2ccc(Cl)cc2)C1 (centres undefined) | nt | 0.1 | nt | -5 | nt
O=c1cc(CO)oc(C(Nc2ccccn2)c2cccc(F)c2)c1O (centres undefined) | -44 | -5.9 | 5% | -1 | 10
Cc1cc2ncn(C(=O)c3cc(-c4ccccc4)nc4ccccc34)c2cc1C | -29 | 3.6 | 1% | -7 | -10
Cc1ccccc1C(=O)N/N=C/c1ccc([N+](=O)[O-])s1 | 28 | -2.0 | ? | 100 | -28
COCC(C)NC(=O)NC1(C(F)(F)F)Oc2ccc(Cl)cc2O1 (centres undefined) | -54 | -5.2 | -7% | 6 | 1 | Arbovirus inh repeat=-9
CC1CCN(C(=O)COC(=O)CNC(=O)C23CC4CC(CC(C4)C2)C3)CC1 | nt | -3.3 | nt | -5 | nt
CCc1nc2oc3cc(OC)ccc3c(=O)c2c(=O)n1Cc1ccco1 | -7 | nt | -2% | -6 | 9
O=C(CCc1nc2ccccc2c(=O)[nH]1)N1CCN(S(=O)(=O)c2ccccc2Br)CC1 | nt | -0.5 | nt | -5 | nt
CCn1cc(/C=C(\NC(=O)c2ccc(OC)c(OC)c2)C(=O)N2CCN(C)CC2)c2ccccc21 | nt | 6.1 | nt | -8 | nt
O=C(Nc1nccs1)c1ccc(N2CCOCC2)c([N+](=O)[O-])c1 | nt | -0.4 | nt | 10 | nt
O=C(NC(=S)NCCC1=CCCCC1)c1ccc(Br)o1 | nt | 1.3 | 9% | 8 | 1
O=S(=O)(c1cccc2nsnc12)N1CCOCC1 | 10 | 3.3 | 6% | -2 | -3
CCOc1ccc(OCC(=O)N(C)c2c(N)n(Cc3ccccc3)c(=O)[nH]c2=O)cc1 | nt | 0.1 | nt | -11 | nt
COc1cc(OC)cc(C(=O)N[C@H](C(=O)NCc2ccco2)C(C)C)c1 | nt | 0.7 | 6% | -10 | -1
O=c1c(Cc2c(F)cccc2Cl)c(O)ccn1Cc1ccc2c(c1)OCO2 | nt | -0.1 | 0% | 2 | -10

Filtered by structure, those above with a cyano group
SMILES | YopH PTP inh | RecA intein inh | Mtb H37Rv | Mtb bLac sens | Arbovirus inh | others
CCOC(=O)c1c(-c2ccc(Cl)cc2)c(C#N)c(=O)n(N)c1N | -19 | 5.6 | 3% | 63 | -5
Cc1ccc(-n2c(C)cc(C)c(C#N)c2=O)cc1 | -25 | 0.6 | -8% | 2 | 4

Following part
SMILES | YopH PTP inh | RecA intein inh | Mtb H37Rv | Mtb bLac sens | Arbovirus inh | others
CCOC(=O)Cc1csc(NC(=O)COc2c(C)cccc2C)n1 | nt | -0.2 | -1% | -2 | -5
COc1ccc(C2=NN(C(C#N)c3ccc(OC)c(OC)c3)C(c3ccccc3)C2)cc1 (centres undefined) | -21 | 2.2 | -3% | ? | -4
COCCNC(=S)N(CCc1c(C)[nH]c2ccccc12)Cc1ccco1 | nt | nt | 8% | -1 | 9
CCCc1cc(=O)[nH]c(SCC(=O)c2cc(C)n(-c3c(C)n(C)n(-c4ccccc4)c3=O)c2C)n1 | nt | 6.9 | 0% | -7 | 3
C=CCN1CCN(C(c2cccc(OC)c2OC)c2nnnn2CCC(C)C)CC1 (centres undefined) | nt | -3.0 | 1% | 0 | -2
CCn1c(COc2cccc3ccccc23)nnc1SCC(=O)OC1CCCCC1 | -29 | 2.3 | 4µM* | 99 | 34*
CN(CC(=O)Nc1ccncc1)S(=O)(=O)c1ccccc1 | -2 | -1.1 | -3% | 0 | 9
COCCN(C(=O)COC(=O)/C=C/c1ccc(C(F)(F)F)cc1)c1c(N)n(Cc2ccccc2)c(=O)[nH]c1=O | nt | -0.6 | nt | -1 | nt
O=C(c1ccccc1)c1ccc(-c2ccc(O)cc2)cc1 | nt | 10.0 | 6% | 7 | nt
Cc1cc(NC(=O)c2ccc([N+](=O)[O-])o2)ccc1NC(=O)c1ccco1 | nt | -2.0 | ? | nt | -35
COCCn1c(SCC(=O)N2CCCc3ccccc32)nnc1-c1ccoc1C | -46 | -1.7 | -1% | 3 | 1
CCOc1cccc2cc(C(=O)N3CCc4ccccc4C3)c(=O)oc12 | -31 | -1.3 | -6% | 2 | 7
NS(=O)(=O)c1ccc(NC(=O)COc2ccc(S(=O)(=O)N3CCCC3)cc2)cc1 | nt | -1.2 | nt | -1 | nt
CCOC(=O)c1ccc(CN(Cc2ccc(C)cc2)S(=O)(=O)c2cccc([N+](=O)[O-])c2)cc1 | -35 | 3.5 | 5% | -4 | 3
CCOc1ccc(-c2[nH]nc3c2C(c2ccc(O)cc2)C(C#N)=C(N)O3)cc1 (centres undefined) | -54 | 63* | -4% | -2 | 2
CS(=O)(=O)c1[nH]nc(-c2cccc(Cl)c2)c1C#N | nt | -1.4 | 4% | -9 | nt
COC(CNC(=O)CCc1c(C)nc2c(-c3ccccc3)c(C)nn2c1C)OC | nt | 1.2 | nt | -8 | nt
Cc1ccccc1C(=O)NC1CCN(Cc2nnnn2CCc2ccccc2)CC1 | 6 | -0.4 | -3% | 0 | 9
COc1ccc(C/C(N)=N/n2cnnc2)cc1 | -31 | -0.2 | -1% | -1 | 14 | Arbovirus inh repeat=2
Cc1cccc(OCC(=O)N2CCN(C(=O)c3ccc([N+](=O)[O-])cc3)CC2)c1 | nt | 0.1 | -8% | 2 | 2
CC1(C)CC(NC(=O)c2ccc3c(c2)OCO3)CC(C)(C)N1 | 2 | 1.8 | -5% | 1 | 3
O=C(c1ccc2ccccc2c1)N1CCN(Cc2ccccc2)CC1 | nt | 3.8 | nt | 4 | nt
COC(=O)c1cn(-c2ccccc2)nc1-c1ccccc1 | 16 | 1.9 | 10% | 0 | -1
O=C(NCc1cccnc1)c1ccc(Cl)c(S(=O)(=O)Nc2ccccc2C(=O)NCc2cccnc2)c1 | nt | 1.9 | 0% | -13 | 3
CCn1ncc(Br)c1C(=O)NC1CCCCCCC1 | nt | -0.1 | nt | 3 | nt

Arranged by number of heavy atoms (rising): 7 of the compounds above
SMILES | YopH PTP inh | RecA intein inh | Mtb H37Rv | Mtb bLac sens | Arbovirus inh | others
Cc1ccc(-n2c(C)cc(C)c(C#N)c2=O)cc1 | -25 | 0.6 | -8% | 2 | 4
Cc1ccc2nsnc2c1S(=O)(=O)N1CCOCC1 | -5 | 1.3 | -10% | -3 | 7
O=C(Nc1ccc2[nH]c(=O)[nH]c2c1)c1cccc([N+](=O)[O-])c1 | nt | -1.4 | nt | 0 | nt
CC1CCN(C(=O)CN(Cc2ccc(Cl)cc2)S(C)(=O)=O)CC1 | nt | -0.3 | nt | -2 | nt
Cc1cc(NC(=O)c2ccc([N+](=O)[O-])o2)ccc1NC(=O)c1ccco1 | nt | -2.0 | ? | nt | -35
CCOc1ccc(-c2[nH]nc3c2C(c2ccc(O)cc2)C(C#N)=C(N)O3)cc1 (centres undefined) | -54 | 63* | -4% | -2 | 2
Cc1cc2ncn(C(=O)c3cc(-c4ccccc4)nc4ccccc34)c2cc1C | -29 | 3.6 | 1% | -7 | -10

Further entries follow.
SMILES | YopH PTP inh | RecA intein inh | Mtb H37Rv | Mtb bLac sens | Arbovirus inh | others
COc1ccccc1Oc1coc2cc(O)ccc2c1=O | -46 | -5.9 | -7% | 4 | -5
O=C(COc1ccc2c(C(F)(F)F)cc(=O)oc2c1)Nc1ccc(N2CCOCC2)cc1 | -42 | -6.6 | 6% | -5 | -7
Cc1nnc2ccc(N3CCCC3)nn12 | -29 | -0.7 | 9% | -11 | -2
O=C(C[n+]1ccc(Cc2ccccc2)cc1)Nc1ccccc1 | nt | -0.2 | 1% | -3 | 1
COc1ccccc1CNS(=O)(=O)N(C)C | nt | -0.5 | 4% | -7 | 4
Cc1oc(C(C)(C)C)cc1C(=O)Nc1cccc(/C=C\C(=O)O)c1 | -24 | 0.6 | -1% | 11 | 18
